Bioassay records as filed in PubChem.
rRNA inh HTS: selective bacterial rRNA inhibition in E. coli | AID 720706 | E. coli WT GFP vs humanized-ribosome RFP mutants, fluorescence, 24 h; active compounds read low; DMSO median 0, no signal -100 | GFP signal change (wild-type ribosome), % (no concentration beside the values) | 350,000 tested, 1.6% active;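 active means significant combined selectivity score with lowered wild-type GFP, culture density cut under 30%, mutant RFP and density less affected; inactive means any of these conditions unmet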; further: one replicate is shown; some compounds called inactive have numbers as strong as hits
AF4-AF9 inh: inhibitors of human MLL-AF4/AF9 interaction | inhibition, % at 10 µM | 350,000 tested, 0.47% active | P42568 | AlphaScreen, biotin-AF4 peptide binding to FLAG-AF9;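 active means every replicate reaching a set inhibition limit, whatever the replicate mean, cut at about 25% in these data; inconclusive means mean inhibition reaches that limit but some replicates miss it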;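 further: 0% = plate neutral control median and 100% = total signal loss; the record names both 10 and 1 µM as test concentration; the first replicate is given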
Target sequence (P42568 whole entry, looked up): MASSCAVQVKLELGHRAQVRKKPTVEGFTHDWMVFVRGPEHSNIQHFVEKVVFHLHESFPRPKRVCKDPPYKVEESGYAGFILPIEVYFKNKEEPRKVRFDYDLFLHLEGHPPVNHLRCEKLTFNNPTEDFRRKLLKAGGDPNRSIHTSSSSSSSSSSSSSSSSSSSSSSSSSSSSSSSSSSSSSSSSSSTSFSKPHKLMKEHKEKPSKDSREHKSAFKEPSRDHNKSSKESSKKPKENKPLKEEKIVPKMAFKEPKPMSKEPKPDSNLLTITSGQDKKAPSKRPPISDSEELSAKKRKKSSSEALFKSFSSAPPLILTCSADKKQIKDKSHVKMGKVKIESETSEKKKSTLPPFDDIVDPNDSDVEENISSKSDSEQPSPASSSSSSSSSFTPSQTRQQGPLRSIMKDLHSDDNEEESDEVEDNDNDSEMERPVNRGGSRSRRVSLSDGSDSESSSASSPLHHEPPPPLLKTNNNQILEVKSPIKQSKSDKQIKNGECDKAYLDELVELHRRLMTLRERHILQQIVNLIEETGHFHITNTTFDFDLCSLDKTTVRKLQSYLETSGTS
rRNA inh HTS OD600: further read-out of rRNA inh HTS, marked with its call; OD600 change, %; measured here: OD600 growth;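 optical density of the mix in the first replicate; 0 = DMSO median and -100 = no signal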
rRNA inh HTS RFP: second read-out of rRNA inh HTS, no call of its own (marks repeat the call); RFP signal change, %; measured here: RFP humanized mutant strains;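 first replicate; 0 = DMSO median and -100 = no signal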
The depositor's hits bear a star; u = inconclusive; & = joins results of further samples. The list is partial; count on the stated rates, not on these rows.

SMILES	rRNA inh HTS	rRNA inh HTS OD600	rRNA inh HTS RFP	AF4-AF9 inh
C[C@H]1CN([C@@H](C)CO)S(=O)(=O)c2ccc(-c3cccnc3)cc2O[C@H]1CN(C)C(=O)c1ccc2c(c1)OCO2	-1.7	-1.8	-4.7	3.5
C[C@@H]1CN([C@@H](C)CO)C(=O)c2cc(C#Cc3ccccn3)cnc2O[C@@H]1CN(C)CC1CCOCC1	2.8	7.3	-0.8	-4.0
CN(Cc1ccccc1)C(=O)c1ccc(Nc2nc(C(N)Cc3ccc(C(F)(F)F)cc3)cs2)nc1 (configuration not stated)	-59.2	-80.8	-19.4	10.6
Cc1noc(C)c1NC(=O)N(C)C[C@H]1OCCCC[C@H](C)Oc2ccc(NC(=O)c3ccncc3)cc2C(=O)N([C@H](C)CO)C[C@@H]1C	-2.2	-5.5	0.3	-3.9
Fc1ccc2cnc(-c3ccsc3)cc2c1	-16.1	-11.6	1.0	2.3
CCCC(=O)Nc1ccc2c(c1)OC[C@H](C)NC[C@H](C)[C@@H](OC)CN(C)C2=O	-0.6	5.5	0.5	-3.9
COCC(=O)N1[C@H](CO)[C@H](c2ccccc2)C12CN(C(=O)c1ccc(F)cc1)C2	1.6	6.8	-2.9	-2.5
O=c1[nH]c2cc([N+](=O)[O-])ccc2c2cc(Br)ccc12	5.7	10.6	-3.6	-34.1
COc1cccc(CNC(=O)[C@@H]2CCCN2C(=O)[C@H]2CCCCN2C(=O)c2cccc(Cl)c2)c1	-17.7	-13.4	3.0	1.7
COCCNC(=O)C[C@@H]1C[C@H]2c3cc(NC(=O)Nc4ccccc4)ccc3O[C@H]2[C@H](CO)O1	0.7	-1.4	-2.1	1.6
C[C@@H]1CN([C@H](C)CO)C(=O)Cc2cc(NC(=O)c3ccncc3)ccc2O[C@H]1CN(C)S(=O)(=O)c1ccc(Cl)cc1	1.4	4.5	1.2	-0.3
CO[C@@H]1CN(C)C(=O)c2cc(NS(=O)(=O)c3ccc(Cl)cc3)ccc2OC[C@@H](C)NC[C@@H]1C	1.8	-1.5	0.4	-3.2
Clc1ccc2oc(-c3ccccc3)cc(=NCCCN3CCOCC3)c2c1	-10.3	-5.5	17.6	-5.3
CCCC#Cc1ccc2c(c1)O[C@H](CN(C)C(=O)COC)[C@@H](C)CN([C@@H](C)CO)S2(=O)=O	-5.8	-7.0	-0.3	2.4
CO[C@@H]1CC[C@@H]2CCOc3ccc(C#N)cc3C(=O)N(C)C[C@@H](OC)[C@@H](C)C(=O)N(C)C[C@H]1O2	3.5	5.5	0.8	1.0
CN1C(=O)c2cc(NS(C)(=O)=O)ccc2OC[C@@H]2O[C@@H](CC(=O)O)CC[C@@H]21	3.9	10.7	-1.8	-1.4
O=C(Nc1ccc(F)cc1)N1C[C@@H]2[C@H](c3ccccc31)[C@@H](CO)N2C(=O)c1ccccc1	1.1	2.9	0.5	0.8
C[C@H](CO)N1C[C@H](C)[C@@H](CN(C)C(=O)Nc2ccc(F)cc2)OCCCC[C@H](C)Oc2ccc(NC(=O)Nc3ccc4c(c3)OCO4)cc2C1=O	1.1	-10.8	-1.0	48.7*
C[C@@H]1CN([C@H](C)CO)C(=O)c2cc(NC(=O)CCN3CCOCC3)ccc2O[C@H]1CN(C)Cc1ccc(Oc2ccccc2)cc1	-0.5	2.2	-0.4	u
C[C@H](CO)N1C[C@H](C)[C@@H](CN(C)C(=O)C2CCCCC2)Oc2ncc(C3=CCCC3)cc2C1=O	-3.0	-3.8	0.0	-3.0

Two compounds picked at random from those above:
SMILES	rRNA inh HTS	rRNA inh HTS OD600	rRNA inh HTS RFP	AF4-AF9 inh
CO[C@@H]1CC[C@@H]2CCOc3ccc(C#N)cc3C(=O)N(C)C[C@@H](OC)[C@@H](C)C(=O)N(C)C[C@H]1O2	3.5	5.5	0.8	1.0
CN1C(=O)c2cc(NS(C)(=O)=O)ccc2OC[C@@H]2O[C@@H](CC(=O)O)CC[C@@H]21	3.9	10.7	-1.8	-1.4

Rewritten in CSV form: part of the list above
Compound,rRNA inh HTS,rRNA inh HTS OD600,rRNA inh HTS RFP,AF4-AF9 inh
CO[C@@H]1CN(C)C(=O)c2cc(NS(=O)(=O)c3ccc(Cl)cc3)ccc2OC[C@@H](C)NC[C@@H]1C,1.8,-1.5,0.4,-3.2
Clc1ccc2oc(-c3ccccc3)cc(=NCCCN3CCOCC3)c2c1,-10.3,-5.5,17.6,-5.3
CCCC#Cc1ccc2c(c1)O[C@H](CN(C)C(=O)COC)[C@@H](C)CN([C@@H](C)CO)S2(=O)=O,-5.8,-7.0,-0.3,2.4
CO[C@@H]1CC[C@@H]2CCOc3ccc(C#N)cc3C(=O)N(C)C[C@@H](OC)[C@@H](C)C(=O)N(C)C[C@H]1O2,3.5,5.5,0.8,1.0
CN1C(=O)c2cc(NS(C)(=O)=O)ccc2OC[C@@H]2O[C@@H](CC(=O)O)CC[C@@H]21,3.9,10.7,-1.8,-1.4

(further entries)
SMILES	rRNA inh HTS	rRNA inh HTS OD600	rRNA inh HTS RFP	AF4-AF9 inh
CC(C)CC#Cc1ccc([C@H]2[C@H](CO)N3C(=O)CN(S(=O)(=O)c4ccccc4)C[C@@H]23)cc1	-14.9	-31.0	22.3	1.4
CN(C)C(=O)c1cccc(-c2cnc3c(NC=O)cc(-c4cccc(F)c4)cn23)c1	-0.7	0.3	3.5	5.9
COc1ccc2c3c([nH]c2c1)[C@H](CO)N(C(=O)Cc1ccccc1)CC31CN(C(=O)Cc2ccccc2)C1	-4.3	-30.4	26.8	2.7
CCCC(=O)Nc1ccc2c(c1)C(=O)N(C)[C@H]1CC[C@H](CC(=O)Nc3ccc(C)cc3)O[C@@H]1CO2	-6.5	-17.6	-1.2	0.9
CC(C)(C)[S@@](=O)N1Cc2cc(C(=O)NCCN3CCCC3)nc(-c3cccc(-c4ccc(C#N)cc4)c3)c2[C@H]1CCO	1.7	4.2	2.0	1.4
COc1ccc2c3c(n(C)c2c1)[C@@H](CO)N(CC1CC1)CC31CN(C(=O)Nc2c(C)noc2C)C1	-0.1	7.7	-1.6	-5.5
COc1ccc2c3c([nH]c2c1)[C@@H](CO)N(C(=O)Nc1cccc(F)c1)CC31CN(S(=O)(=O)c2cccc(C)c2)C1	0.3	-19.4	1.2	-1.7
C[C@H](C(=O)N(C)C[C@@H]1OCc2ccccc2-c2ccccc2C(=O)N([C@@H](C)CO)C[C@H]1C)c1ccccc1	-2.4	1.7	0.8	-0.8
CC(C)NC(=O)Nc1ccc2c(c1)C(=O)N([C@H](C)CO)C[C@H](C)[C@H](CN(C)S(=O)(=O)c1cn(C)cn1)O2	5.7	3.9	-0.3	-3.9
C[C@@H]1CCCCO[C@H](CN(C)C)[C@H](C)CN([C@@H](C)CO)C(=O)c2cc(NC(=O)Nc3ccccc3)ccc2O1	-1.9	5.3	-2.6	-5.0
COc1ccc(CN(C)C[C@@H]2OCCCC[C@@H](C)Oc3ccc(NS(=O)(=O)c4ccc(C)cc4)cc3C(=O)N([C@H](C)CO)C[C@@H]2C)cc1	0.9	6.7	4.5	2.0
CCNC(=O)Nc1ccc2c(c1)C(=O)N(C)[C@@H]1CC[C@H](CC(=O)N[C@@H](C)c3ccccc3)O[C@@H]1CO2	-1.6	-0.1	0.3	-2.9
C[C@@H]1CN([C@H](C)CO)S(=O)(=O)c2ccc(C3=CCCC3)cc2O[C@@H]1CN(C)C(=O)c1cnccn1	-4.9	-11.2	-1.9	-2.0
COCC#Cc1cnc2c(c1)C(=O)N([C@H](C)CO)C[C@@H](C)[C@H](CN(C)C(=O)Nc1c(C)noc1C)O2	1.8	11.9	-3.2	-0.9
C[C@H]1CN([C@@H](C)CO)C(=O)c2cc(NC(=O)Nc3ccc(C(F)(F)F)cc3)ccc2O[C@@H]1CN(C)C(=O)Nc1ccc(F)cc1	-2.6	-10.3	0.3	0.2
C[C@H](NC(=O)C[C@@H]1C=C[C@@H](NC(=O)C2CCOCC2)[C@H](CO)O1)c1ccccc1	1.2	3.7	2.4	-0.3
CCS(=O)(=O)Nc1ccc2c(c1)C(=O)N(C)[C@@H]1CC[C@@H](CC(=O)N[C@@H]3CCN(Cc4ccccc4)C3)O[C@H]1CO2	-3.3	2.7	-1.2	-0.9
C[C@@H]1CN([C@H](C)CO)S(=O)(=O)c2ccc(C3=CCCCC3)cc2O[C@@H]1CN(C)C(=O)c1ccccc1	-11.4	-38.0	20.9	9.4
CCC(=O)Nc1ccc2c(c1)OC[C@@H](C)N(C(=O)c1ccncc1)C[C@H](C)[C@H](OC)CN(C)C2=O	3.3	6.8	-1.6	0.2
C/C=C/c1ccc([C@@H]2[C@H](CO)N3CCCCN(C(=O)Nc4cc(F)ccc4F)C[C@@H]23)cc1	-26.6	-61.1	17.9	13.3
CCNC(=O)C[C@@H]1CC[C@@H]2[C@@H](COc3ccc(NC(=O)Nc4cccc(F)c4)cc3C(=O)N2C)O1	-3.4	-5.6	0.1	2.9
C[C@@H]1CN([C@H](C)CO)C(=O)c2cc(NS(=O)(=O)c3ccc(Cl)cc3)ccc2O[C@H]1CN(C)S(=O)(=O)c1cccs1	-6.0	-2.8	2.8	-1.0
O=C(NN=Cc1cc(=O)[nH]c(=O)[nH]1)c1ccncc1	1.6	8.7	-2.8	-10.2
CN(C)C(=O)c1cccc(-c2ccc3n(c2=O)C[C@H]2[C@H](CO)[C@@H](C(=O)NCC4CC4)N[C@@H]32)c1	0.4	-2.6	0.5	-0.5
CC(=O)c1ccc(OC2(C)CCN(CCOc3ccc(C)cc3)C2)cc1 (configuration not stated)	0.9	-5.3	1.1	0.0
CO[C@H]1CN(C)C(=O)c2cc(NC(=O)c3ccc(F)cc3)ccc2OC[C@@H](C)N(C)C[C@@H]1C	-0.6	-6.4	0.4	1.3
COc1cccc(-c2ccc3c(c2)O[C@H](CN(C)C(C)=O)[C@@H](C)CN([C@H](C)CO)S3(=O)=O)c1	-4.1	-18.6	-2.6	1.0
CN(C)C(=O)C[C@H]1C[C@@H]2c3cc(NC(=O)c4cccnc4)ccc3O[C@@H]2[C@H](CO)O1	3.2	9.8	-2.1	-1.5
O=C(C1CC1)N1CC(=O)N2[C@H](CO)[C@@H](c3ccc(-c4cccnc4)cc3)[C@H]2C1	-0.2	1.6	-2.5	5.4
COc1ccc(OC(=O)N(C)C[C@H]2OCc3cn(nn3)CCCC(=O)N([C@@H](C)CO)C[C@H]2C)cc1	-0.7	5.9	-2.6	-1.2
O=C(C[C@@H]1CC[C@@H]2[C@H](COC[C@@H](O)CN2Cc2cccc(-c3ccncc3)c2)O1)N1CCOCC1	-2.9	-4.1	-4.9	-0.8
CC(C)NC(=O)N(C)C[C@H]1Oc2c(NC(=O)CCCCCC(=O)Nc3ccccc3N)cccc2C(=O)N([C@H](C)CO)C[C@@H]1C	0.3	-1.8	-1.7	0.4
CCCNC(=O)C[C@H]1CC[C@@H]2[C@H](COc3ccc(NC(=O)Nc4ccccc4F)cc3C(=O)N2C)O1	-1.4	1.1	-0.9	2.0
COc1cccc(S(=O)(=O)N[C@@H]2C=C[C@H](CC(=O)NC3CCC3)O[C@@H]2CO)c1	5.1	6.1	0.5	-1.3
CN1CCCCN2[C@H](C1)[C@H](c1ccc(-c3ccc(F)cc3)cc1)[C@@H]2CO	2.5	1.3	0.3	2.9
COc1ccccc1-c1cccc(-c2nc(C(=O)Nc3nccs3)cc3c2[C@H](CCO)N(C(=O)CC2CC2)C3)c1	1.6	20.6	0.2	-2.4
C/C=C/c1ccc(C2[C@H]3CNC[C@@H]2N3Cc2cccc(OC)c2)cc1 (some centres not stated)	2.3&-0.3	9.5&8.4	2.5&6.7	9.8
CCS(=O)(=O)N1CCC2(CC1)CN(C(=O)Nc1c(C)noc1C)[C@@H](CO)c1c2c2ccc(OC)cc2n1C	4.8	-2.2	-1.6	-0.6
CN(C)C(=O)C[C@H]1CC[C@H]2[C@H](COc3ccc(NC(=O)Nc4cccc(Cl)c4)cc3C(=O)N2C)O1	-2.3	-2.7	1.8	0.0
CN(C)C(=O)C[C@@H]1CC[C@H]2[C@@H](COc3ccc(NC(=O)Nc4cccc(Cl)c4)cc3C(=O)N2C)O1	0.2	-0.5	1.5	-0.4
COC(=O)C[C@H]1CC[C@@H]2[C@@H](COc3ccc(NC(=O)Nc4ccc(C)cc4)cc3C(=O)N2C)O1	-7.3	-12.0	1.0	0.6
CCS(=O)(=O)Nc1ccc2c(c1)C(=O)N(C)C[C@H](OC)[C@@H](C)CN(Cc1ccccn1)[C@H](C)CO2	0.7	1.9	1.4	-2.6
CC1(C(=O)NS(=O)(=O)C2CC2)CCCN(C(=O)c2ccc(F)cc2Cl)C1 (configuration not stated)	1.1	5.2	4.9	1.1
C[C@@H]1CN([C@H](C)CO)C(=O)c2cc(NS(C)(=O)=O)ccc2O[C@@H](C)CCCCO[C@@H]1CN(C)Cc1ccccc1	5.2	7.3	-1.2	-0.7
C[C@H]1CCCCO[C@@H](CN(C)C(=O)Cc2ccccc2)[C@@H](C)CN([C@@H](C)CO)C(=O)c2cc(NC(=O)c3ccccc3)ccc2O1	-1.1	0.4	5.7	1.4
O=C(Nc1ccccc1F)N1C[C@H]2[C@@H](c3ccccc31)[C@@H](CO)N2C(=O)c1ccccn1	-1.3	-9.5	-3.2	-21.4
COCC#Cc1ccc2c(c1)O[C@@H](CN(C)Cc1ccccc1F)[C@H](C)CN([C@H](C)CO)S2(=O)=O	-14.1	-43.7	17.4	4.9
O=C(C1CCCC1)N1CC2(C1)[C@H](c1ccccc1)[C@@H](CO)N2C(=O)CC1CC1	-1.6	-6.7	-0.6	-5.3
